# Compound activity as filed in PubChem.
# Rango-impB inh – prevents formation of the Rango-importin beta complex; Potency, µM (doses to about 92.2 µM), inactives show top-dose inhibition of complex formation; actives 0.031% (n = 340,000); AID 540263; Rango CFP/YFP FRET sensor + importin beta, 45 min; active = rising FRET ratio curve, often small or poorly fitted; inconclusive = mostly compound fluorescence or quenching in the first reads; inactive = flat curves in all reads;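 further: potency means the concentration at half of the fitted maximal effect; 0% = DMSO wells and 100% = buffer wells lacking importin beta; nearly all actives have a fitted effect of over 15% in size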
#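 FRET biosensor (snurportin 1 IBB flanked by EYFP and cerulean), 50 nM, with compound 5 min, then 0.125 microM importin beta in PBS, 1 mM DTT, 0.02% Tween-20, 0.1% BSA. CFP/YFP ratio read after 45 min at room temperature; pre-read flags interference.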
# GLA inh pH 4.5 – inhibitors of human alpha-galactosidase A at pH 4.5 | 230,000 tested, under 10 active | AID 1467 | purified enzyme, 4-MU-alpha-Gal fluorescence, pH 4.5 | activity change, negative = inhibition, % at 105 µM | P06280; inconclusive = small, poorly fitted or top-dose-only inhibition, or a rising curve; inactive = flat fitted curve, though single readings scatter; no compound was filed as active;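 further: 0% = full activity with enzyme and -100% = basal without enzyme; dose as in the result columns while the protocol names 77 µM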
# Target sequence (P06280 whole entry, looked up): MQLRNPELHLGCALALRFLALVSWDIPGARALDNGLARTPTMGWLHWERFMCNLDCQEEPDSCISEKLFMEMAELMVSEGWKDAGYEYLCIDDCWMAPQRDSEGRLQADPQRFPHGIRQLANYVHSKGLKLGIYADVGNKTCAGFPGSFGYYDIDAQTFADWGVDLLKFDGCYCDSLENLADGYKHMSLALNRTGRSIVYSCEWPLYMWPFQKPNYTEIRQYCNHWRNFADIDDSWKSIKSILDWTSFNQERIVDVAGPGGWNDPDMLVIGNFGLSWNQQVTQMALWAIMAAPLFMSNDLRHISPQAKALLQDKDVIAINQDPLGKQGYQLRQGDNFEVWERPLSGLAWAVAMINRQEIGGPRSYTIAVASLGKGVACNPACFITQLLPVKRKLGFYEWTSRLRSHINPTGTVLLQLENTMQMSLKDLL
# Rango release inh – prevents RanGTP from dissociating the Rango-importin beta complex. O95149+P62826. Biochemical FRET Rango-importin beta, RanGTP-induced dissociation. Potency, µM (top dose mostly 46.1 µM), for the others: at the top dose activity change, negative = inhibition. actives 0.071% (n = 340,000); active means falling FRET ratio curve, often poorly fitted, with flat reads before Ran was added; inconclusive means other falling curves, or compound fluorescence or quenching; inactive means flat or rising ratio curve;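 further: potency means the concentration at half of the fitted maximal effect; % of control where 0% means no effect; nearly all actives have a fitted effect of over 45% in size; -100% = wells without RanGTP and RCC1; the record marks most hits as doubtful in a second field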
#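 Recombinant Rango FRET biosensor (EYFP–snurportin 1 IBB–cerulean CFP10) at 0.1 uM premixed with 0.25 uM importin beta in PBS, 1 mM DTT, 0.02% Tween-20, 0.1% BSA. Compound added 5 min; RanGTP-RCC1 (0.6 uM Ran, 2 mM GTP, 0.2 uM RCC1) then triggers release, read at 45 min.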
# miR-21 reporter – miR-21 reporter, rising signal; 340,000 tested, under 10 active; AID 2288; HeLa miR-21 FLuc reporter, luciferase, 48 h; Potency, µM (titrated, usually from 38.3 µM), inactives show top-dose reporter change, positive = more light; active = well fitted rising curve with a large enough effect; inconclusive = small, poorly fitted or top-dose-only effect; inactive = no such curve, though single readings can be large or run the other way;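 further: % of control where 0% means no effect; miR-21 action dims this reporter so a rising signal means less miR-21 action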
#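 Luminescence from a firefly luciferase reporter carrying a miR-21 binding site downstream, stably expressed under a CMV promoter in HeLa cells that make miR-21 endogenously, reports miRNA modulation after 48 h compound exposure up to approximately 40uM final.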
# The depositor's hits bear a star; ? = inconclusive; / = not tested or not shown; & = joins results of further samples; [ ] = another dose, or the depositor's remark. The list is partial, so the mix of outcomes need not match the whole.
cpd	Structure	Rango-impB inh	GLA inh pH 4.5	Rango release inh	miR-21 reporter
1	COc1ccc(C2=NO[C@@H]3[C@@H]4C[C@@H]([C@H]5C(=O)N(c6ccc7c(c6)OCO7)C(=O)[C@@H]45)[C@H]23)cc1OC	0.2%	-2	-4%	-7%
2	CCN(CC)Cc1ccc(OC)c(Cl)c1	1.2%	1	-1%	-1%
3	COc1ccc(/C=C/C(=O)OCC(=O)c2c(C)[nH]c3ccccc23)cc1OC	3.6%	3	-13%	-8%
4	Cc1ccc(-n2c(SCC(=O)Nc3ccc4cn[nH]c4c3)nnc2-c2ccco2)cc1	-0.1%	8	8%	-6%
5	CCCNC(=O)CN1C(=O)NC(CCSC)C1=O (centres undefined)	-4.4%	1	24%	5%
6	CCOC(=O)c1[nH]c2ccccc2c1NC(=O)C(CC)CC	2.6%	0	-18%	-3%
7	CC1Cc2ccccc2N1C(=O)Cc1cccs1 (centres undefined)	-1.8%	-5	0%	-9%
8	NC(=O)c1ccsc1NC(=O)COC(=O)/C=C/c1ccccc1	?	/	1%	/
9	Cc1nc2sc(C(c3cccc(F)c3)N3CCOCC3)c(O)n2n1 (centres undefined)	0.1%	0	5%	-6%
10	COc1ccc(OC)c(NC(=O)C(=O)NCc2ccncc2)c1	-0.4%	-4	0%	-11%
11	CCOc1ccccc1NC(=O)Nc1cnccn1	-17%	-15	10%	-7%
12	CCc1ccc(NC(=O)C(=O)NCCN2CCN(C(=O)c3ccco3)CC2)cc1	-0.4%	-4	-11%	-3%
13	CCN1C(=O)[C@H]2[C@@H](c3ccc(-c4cc(C(C)=O)cs4)cc3)N3CCC[C@@]3(C(=O)OC)[C@H]2C1=O	-0.8%	/	15%	/
14	O=C(c1cccnc1)N1CCN(S(=O)(=O)c2ccc(Cl)cc2)CC1	1.3%	-1	3%	1%
15	C=CC[C@H](CC(=O)NCCO)C(=O)NCCOC(=O)[C@@H](CC=C)CC(=O)OC(C)(C)C	2.5%	/	10%	/
16	COc1ccc2cc(C#N)c(SCC(=O)N3CCCC3)nc2c1	-5.9%	3	-1%	-21%
17	Cc1ccccc1NC(=S)N(Cc1ccccc1)Cc1cccnc1	-1.1%	-3	18%	-4%
18	Cc1sc2ncnc(NCc3cccs3)c2c1C	-0.1%	5	26%	-9%
19	COc1ccc(N(CC(=O)Nc2cccc(C(C)=O)c2)S(C)(=O)=O)cc1OC	-0.1%	1	-7%	-8%
20	C[C@H](CO)N1C[C@H](C)[C@@H](CN(C)C(=O)Nc2ccc(C(F)(F)F)cc2)Oc2c(NC(=O)C3CCCCC3)cccc2C1=O	0.2%	/	6%	/
21	O=c1[nH]c(Nc2ccccc2)cc2ccccc12	?	-8	?	-8%
22	COc1ccc(NC(=O)Cn2cc(S(=O)(=O)Cc3ccccc3)c3ccccc32)c(OC)c1	-3.2%	-7	4%	-2%
23	Cc1ccc(NC(=O)COC(=O)c2nn(-c3ccc(Cl)cc3)cc2O)cc1	-2.5%	/	-3%	/
24	Cc1ccc(CNC(=O)C2CCC(=O)N(CCc3ccc(Cl)cc3)C2)cc1 (centres undefined)	3.7%	/	-6%	-39%
25	CCc1cccc(OCC(=O)Nc2ccc(C(=O)O)cc2NC(=O)COc2cccc(CC)c2)c1	2.4%	/	-13%	-5%
26	c1cncc(-c2cccnc2)c1	-1.2%	4	1%	2%
27	CCOc1ccc2c(c1)C(=O)C(=O)N2CC1COc2ccccc2O1 (centres undefined)	4.0%	/	-2%	1%
28	CC(C)C(=O)Nc1cccc(C(=O)Nc2cc([N+](=O)[O-])ccc2Cl)c1	4.5%	-1	-16%	-1%
29	COc1ccccc1NS(=O)(=O)c1cc(NC(=O)C(C)NC(N)=O)ccc1N1CCCC1 (centres undefined)	0.9%	/	-4%	/
30	C=CCN1C=C2C(=O)C(C)(OC(=O)CCC(=O)OC)C(=O)C=C2C=C1C1CC1 (centres undefined)	?	-2&-13	-28%	4%
31	CCC(=O)Nc1ccc(/C(C)=N/NC(=O)c2c(-c3ccccc3Cl)noc2C)cc1	?	5	-16%	-2%
32	CC(C)C1C(=O)CC(c2ccccc2)NC1c1ccccc1 (centres undefined)	-0.1%	/	-11%	2%
33	CCO[C@H]1OC(C(=O)N2CCN(C)CC2)=C[C@@H](c2ccc(C(F)(F)F)cc2)[C@@H]1CCCO	-2.8%	-1	3%	-2%
34	COc1cc(NS(=O)(=O)c2ccc(NC(=O)COc3ccc(C)cc3C)cc2)nc(OC)n1	-1.4%	6	13%	-10%
35	c1ccc(-c2csc(-c3cccnc3)n2)cc1	-1.7%	3	-3%	-35%
36	O=S(=O)(Cc1ccc(Cl)cc1)Nc1ccc(Cl)cn1	-1.4%	7	-9%	-5%
37	CCOc1cc(N2CCOCC2)c(OCC)cc1NC(=O)CN1C(=O)NC(Cc2ccccc2)C1=O (centres undefined)	5.1%	3	16%	-5%
38	COc1ccccc1-c1cc(C(=O)NC2CCCC2)no1	0.3%	/	-6%	-61%
39	O=C1CCC(C2CCc3cc(O)ccc3C2)C1 (centres undefined)	-2.6%	/	-13%	/
40	CC(C)(C)c1ccc(NC(=O)Nc2ccc(OCC(=O)N3CCOCC3)cc2)cc1	-0.4%	1[21.1 µM]	0%	3%
41	Cc1ccccc1OCC(=O)NNC(=O)C1CC(=O)N(c2ccc3c(c2)OCCO3)C1 (centres undefined)	2.2%	/	10%	/
42	CCCc1nnc(SCC(=O)NC2CC2)n1C	-4.2%	/	11%	-4%
43	C#CCNC(=O)C1=C[C@@H](c2cn(C(C)=O)c3ccccc23)C[C@@H](OCCCCO)O1	?	-6	-16%	-9%
44	COc1ccc(CN2CCC(C(=O)NCCc3ccc(OC)c(OC)c3)CC2)c(OC)c1	?	-2	18%	0%
45	CN(CC(=O)Nc1ccc(Cl)c(C(F)(F)F)c1)C(=O)C1CC(=O)N(C2CCCC2)C1 (centres undefined)	0.0%	/	3%	/
46	O=C1COc2ccc(C(=O)CSc3nnnn3-c3ccccc3)cc2N1	8.7%	-4	9%	-7%
47	Cn1ccc(C(=O)Nc2ccc3c(c2)OCCO3)n1	1.2%	/	11%	-19%
48	O=C(NC1=NCCS1)c1ccccc1OCc1ccccc1Cl	3.1%	-25[21.1 µM]	-6%	-5%
49	Cc1[nH]n(-c2ccccc2)c(=O)c1N=O	-2.9%	4	-12%	7%
50	C=CCN1C(=O)N/C(=C/c2ccc(C)o2)C1=O	-0.7%	-3	-25%	2%
51	Cc1ccc(SC[C@H](C)CN2CC[C@H](NC(=O)OCc3ccccc3)CCC2=O)cc1	-2.1%	/	-13%	1%
52	COc1ccc(CN2CCN(c3ncnc4scc(-c5ccc(F)cc5)c34)CC2)cc1	-0.3%	/	-11%	13%
53	COc1ccc(NC(=O)CCSc2nnnn2C)cc1	-4.6%	10	0%	-38%
54	O=C(CC1CC2CCC1C2)N1CCN(S(=O)(=O)c2ccccc2[N+](=O)[O-])CC1 (centres undefined)	-2.8%	/	13%	/
55	COC(=O)c1cccc(NC(=O)c2cnccn2)c1	-2.4%	/	-16%	-3%
56	COc1cc(CCC(O)CC(=O)CCc2ccccc2)ccc1O (centres undefined)	0.7%	-5	2%	-2%
57	O=C(COc1ccc(Cl)cc1Cl)Nc1ccc(Cl)cn1	-0.2%	13	-14%	-19%
58	Cc1ccc(OCc2cnc(Cl)s2)c(C)c1	0.7%	2	-12%	-34%
59	N/C(=N\OC(=O)COc1ccc(Br)cc1)c1ccncc1	-3.2%	-4	-16%	-10%
60	CCc1ccc2c(c1)c1nc(C)sc1n2CC(=O)OC	?	-15	21%	-4%

# An excerpt from above in order of their number in GLA inh pH 4.5, largest number first.
cpd	Structure	Rango-impB inh	GLA inh pH 4.5	Rango release inh	miR-21 reporter
4	Cc1ccc(-n2c(SCC(=O)Nc3ccc4cn[nH]c4c3)nnc2-c2ccco2)cc1	-0.1%	8	8%	-6%
37	CCOc1cc(N2CCOCC2)c(OCC)cc1NC(=O)CN1C(=O)NC(Cc2ccccc2)C1=O (centres undefined)	5.1%	3	16%	-5%
19	COc1ccc(N(CC(=O)Nc2cccc(C(C)=O)c2)S(C)(=O)=O)cc1OC	-0.1%	1	-7%	-8%

# Later entries
cpd	Structure	Rango-impB inh	GLA inh pH 4.5	Rango release inh	miR-21 reporter
61	C=CCn1c(SCC(=O)c2ccc(Br)cc2)nnc1C(CC(C)C)NC(=O)c1cccs1 (centres undefined)	-0.6%	6	-7%	7%
62	Cc1nc2ccccc2c(=O)n1/N=C/c1ccccc1	7.8%	2	-2%	-13%
63	O=C(NC1=NCCS1)c1ccc(-c2ccc(Cl)cc2)o1	7.4%	4	-13%	-30%
64	O=C(Nc1ccc(F)cc1)NC1(C(=O)NCc2cccs2)CCCCC1	-0.3%	-2	20%	-2%
65	N=C1C(c2ccccc2)=C(O)CN1c1cccc(S(=O)(=O)Nc2cccc(C(F)(F)F)c2)c1	0.0%	2	-1%	-20%
66	COCC(=O)n1nc(-c2ccccc2)nc1NCc1ccccc1	9.0%	-17	-1%	-52%
67	C#CC1(O)CCC2C3CCc4cc(O)cc(C)c4C3CCC21C (centres undefined)	0.5%	/	-1%	/
68	CCOC(=O)c1nc(Nc2ccc(C(=O)O)cc2)c2ccccc2n1	3.4%	3	-5%	-6%
69	Cc1nn(C)c(C)c1NC(=O)c1ccc(S(=O)(=O)N(C)C)cc1	0.9%	-3	2%	-2%
70	O=C(CN1C(=O)NC2(CCCC2)C1=O)OCCOc1ccccc1Cl	5.9%	/	?	/
71	COc1ccc(C(CNC(=O)c2cc(S(=O)(=O)Nc3cccc(C)c3)ccc2C)N2CCOCC2)cc1 (centres undefined)	-0.7%	/	-5%	/
72	Cc1ccc(CNc2ccc(N3C(=O)CC(C)C3=O)cc2[N+](=O)[O-])cc1 (centres undefined)	-2.9%	-5	4%	0%
73	COc1ccc(N2CCN(CC(=O)c3c(C)n(C)c4ccc(OC)cc34)CC2)cc1	-0.2%	-2	-4%	0%
74	COc1cn(-c2ccccc2)nc1C(=O)Nc1ccc(C)cc1Cl	-2.9%	/	-18%	-2%
75	CCOc1ccc(NC(=O)CCNS(=O)(=O)c2ccc(Br)s2)cc1	0.1%	1	11%	1%
76	CC(=O)N1CCN(c2ccc(Oc3ccc([N+](=O)[O-])c(C(F)(F)F)c3)cc2)CC1	0.7%	/	-1%	29%
77	COc1cc(NC(=O)CN2C(=O)COc3ccc(S(=O)(=O)N4CCCCC4)cc32)cc(OC)c1	0.1%	/	6%	5%&-1%
78	COC(=O)Cn1cc(C(=O)c2cccs2)c2ccccc21	-0.1%	-7	2%	1%
79	Cc1ccc(S(=O)(=O)c2c(N)n(CCCO)c3nc4ccccc4nc23)cc1	?	?	-21%	3%
80	O=C(O)c1cnc(-c2ccccc2)nc1-c1ccccc1	3.1%	2	?	-1%
81	COc1ccc(Cn2nnnc2C(c2cccs2)N2CCN(c3ccc([N+](=O)[O-])cc3)CC2)cc1 (centres undefined)	?	-5	-6%	3%
82	CC1CCCN(S(=O)(=O)c2cccc(C(=O)NCc3ccco3)c2)C1 (centres undefined)	1.8%	/	-8%	/
83	Cn1c(=O)[nH]c(=O)c2c1nc(SCCN1CCCCC1)n2Cc1ccccc1	-0.6%	-6	-19%	-7%
84	COc1cccc(OC)c1C(=O)N1CCN(Cc2ccccc2C(F)(F)F)CC1	0.7%	-3	-5%	1%
85	CC1=C(C#N)C(C)C2=C(CC(C)(C)CC2=O)N1 (centres undefined)	?	0	-12%	-1%
86	O=C(CNCc1ccc(Cl)cc1)Nc1cc(S(=O)(=O)N2CCCC2)ccc1Cl	-1.8%	/	-13%	/
87	CC(=O)c1cccc(S(=O)(=O)N2CCC(C(=O)O)CC2)c1	5.5%	-3	0%	0%
88	O=c1[nH]nc(SCCS(=O)(=O)c2ccc(F)cc2)n1-c1ccccc1C(F)(F)F	3.8%	3	-2%	26%
89	Cn1nnnc1SCc1ccc(C(=O)Nc2ccccc2F)cc1	-1.8%	5	5%	-38%
90	Cc1cccn2c(CNCC(C)Oc3cccnc3)c(C(=O)N3CCOCC3)nc12 (centres undefined)	-0.3%	6	-4%	0%
